Assay outcomes (PubChem BioAssay)
Resorufin autofl – compound fluoresces in the resorufin spectral region; 0.04% of 59,000 active; Compound fluorescence, resorufin region 547/598 nm, buffer; stronger effect = higher value; max dye-equivalent concentration, M; active = above 10 nM dye equivalent; inconclusive = 1 to 10 nM; inactive = 1 nM or less; a few of its hits are not listed in these tables; further: highest value over a series up to 38 µM
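Tris 100 mM pH 8.0; compound added, 15 min RT; CCD imager read, ex 547 nm/em 598 nm; signal normalized to resorufin standard curve (six concentrations per plate) as dye-equivalent concentration.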
A488 fluor – A488 region autofluorescence; compound autofluorescence, A488 spectral region, dye equivalency; stronger effect = higher value; max dye equivalency, M; 0.1% of 59,000 active; AID 591; active = above 10 nM dye equivalent; inconclusive = 1 to 10 nM; inactive = 1 nM or less; about half of its hits are not listed in these tables;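 further: highest value over a series up to 38 µM; compound alone in buffer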
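Readout is A488 dye-equivalent concentration, calibrated by a per-plate six-point Alexa 488 series. Compounds in 100 mM Tris buffer pH 8.0 were incubated 15 min at room temperature. Plates were imaged using 480 nm excitation/540 nm emission filters.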
TSHR ag – activates the human thyroid stimulating hormone receptor; 0.48% of 73,000 active; Potency, µM (series often up to 57.1 µM), for inactives: top-dose activation, most hits filed as activators; P16473; HEK293-CNG-TSHR cells (CNG channel as cAMP sensor), membrane potential dye, cAMP; active = well fitted activation curve of enough size with the parental cells flat; inconclusive = any curve in the parental cells; inactive = parental cells flat and receptor cells flat or falling; further: potency means the concentration at half of the fitted maximal effect; % of control where 0% means no effect; weak receptor curves with flat parental cells got no call and are not listed
Target sequence (P16473 whole entry, looked up): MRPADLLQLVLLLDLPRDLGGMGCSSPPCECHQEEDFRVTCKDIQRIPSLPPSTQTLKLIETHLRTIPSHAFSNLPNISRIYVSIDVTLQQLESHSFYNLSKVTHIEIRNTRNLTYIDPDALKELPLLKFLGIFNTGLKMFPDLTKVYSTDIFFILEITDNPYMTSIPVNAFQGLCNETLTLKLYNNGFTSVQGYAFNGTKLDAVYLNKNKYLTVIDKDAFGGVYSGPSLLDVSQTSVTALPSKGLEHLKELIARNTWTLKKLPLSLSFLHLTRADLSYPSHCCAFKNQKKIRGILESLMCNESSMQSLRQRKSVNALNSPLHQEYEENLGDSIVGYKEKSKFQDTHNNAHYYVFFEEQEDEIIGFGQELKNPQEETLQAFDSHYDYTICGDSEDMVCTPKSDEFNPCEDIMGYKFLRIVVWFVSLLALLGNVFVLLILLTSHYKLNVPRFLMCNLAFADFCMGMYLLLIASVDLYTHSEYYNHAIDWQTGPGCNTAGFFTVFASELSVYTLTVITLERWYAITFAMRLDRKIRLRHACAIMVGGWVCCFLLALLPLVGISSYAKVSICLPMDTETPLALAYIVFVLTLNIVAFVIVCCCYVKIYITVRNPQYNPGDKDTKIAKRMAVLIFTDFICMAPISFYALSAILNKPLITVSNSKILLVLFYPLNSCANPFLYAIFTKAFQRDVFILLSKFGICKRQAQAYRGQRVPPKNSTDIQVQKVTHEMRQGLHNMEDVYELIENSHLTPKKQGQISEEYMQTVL
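cAMP rise detected as CNG-channel membrane depolarization by fluorescent dye (emission 590 nm), 30 min after compound, following 60 min dye loading containing 100 uM RO 20-1724 at room temperature. Cells: TSHR/CNG HEK 293, with parental CNG HEK 293 as control.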
AID923 – qHTS Assay for Allosteric/Competitive Inhibitors of Caspase-1: Spectroscopic Profiling in AFC Spectral Region; compound fluorescence, AFC spectral region (405/520 nm); almost no hit is shown here; Potency, µM (highest dose often 57.5 µM), without a hit: top-dose fluorescence increase, actives largely listed as activators; 1.1% of 75,000 active; AID 923, 2007; active means well fitted activation curve with a large enough effect; inconclusive means small, poorly fitted or top-dose-only effect;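 further: potency means the concentration at half of the fitted maximal effect; 0% is about no effect; scaled to a free AFC standard on each plate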
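Compound autofluorescence profiled at 405 nm ex/520 nm em during kinetic caspase 1 run (50 nM enzyme, 5 uM Ac-WEHD-AFC, HEPES pH 7.5, 10 mM DTT). Titration up to 57 uM; baseline from regression intercept, normalized to AFC standard curve.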
A647 autofl – A647 region autofluorescence; Compound fluorescence, A647 channel (570/671 nm), Tris buffer; max dye-equivalent concentration, M; 59,000 tested, under 10 active; active means above 1 µM dye equivalent; inconclusive means 0.1 to 1 µM; inactive means 0.1 µM or less;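 further: values scaled relative to a standard on each plate; highest value over a series up to 38 µM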
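Compounds pinned into 100 mM Tris pH 8.0, 15 min at room temperature, then read with 570 nm excitation/671 nm emission filters. Fluorescence normalized to an on-plate six-point Alexa 647 standard curve, giving dye-equivalent concentration per compound concentration.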
* marks the source's active call; other numbers are inactive results; i = inactive; ? = inconclusive; . = no result given; & = joins results of further samples; [ ] = dose if it differs, or a comment. These rows are one share of the data; the hit share may differ from the screen's.

SMILES | Resorufin autofl | A488 fluor | TSHR ag | AID923 | A647 autofl
N[C@@H](CSC1(c2ccc(Cl)cc2)c2ccccc2-c2ccccc21)C(=O)O | i | i | 11.0%[11.4 µM] | -5.2%[11.5 µM] | 3.28e-08
N#C/C(C(=O)Oc1ccccc1)=C1\C=CC=CN1 | i | i | 11.0% | -0.5% | 1.53e-08
CC1CCc2nc(N)c(C#N)c(-c3cccn3C)c2C1 (stereo not drawn) | i | i | 12.8% | 0.3% | 2.23e-08
O=C1C2ON(c3ccccc3)C(c3cccnc3)C2C(=O)N1c1ccccc1 (stereo not drawn) | i | i | . | . | 2.9e-09
CCCOC(=O)Nc1sc2c(c1C(=O)OCC)CCC2 | i | i | 6.4% | -0.1% | 1.21e-08
CC(C)(C)c1cc(C(c2cccnc2)N2CCN(CCO)CC2)cc(C(C)(C)C)c1O (stereo not drawn) | i | i | 4.6% | -2.1% | 3.5e-09
Cc1ccc(C(=O)O)cc1S(=O)(=O)N1CCSCC1 | i | i | 6.9% | -2.6% | 2.66e-08
COc1cccc(C(=O)Nc2cnc(NC(=O)c3ccco3)cc2C)c1 | i | i | 0.3% | -1.8% | 1.42e-08
COCC(=O)N1CCC2(CC1)CCN(c1cccc(-c3ccccc3)c1)CC2 | i | i | 17.1% | -1.2% | 1e-09
CCCCNc1nc(C)nc2c1nc(-c1ccccc1)n2C1CCN(Cc2ccccc2)C1 (stereo not drawn) | . | . | ? | 2.0% | .
O=S(=O)(NCc1ccccn1)c1ccc2c(c1)OCCO2 | i | i | -1.5% | -0.6% | 1e-09
CCOC(=O)CSc1nc2c(sc(=S)n2CCc2ccccc2)c(=O)n1Cc1ccco1 | i | i | ? | 0.1% | 5.8e-09
CCOC(=O)c1c(C)c(C(=O)NCc2ccc3c(c2)OCO3)c(C)n1C | i | i | ? | 1.3% | 1e-09
CC(C)C[C@H]1C(=O)N2CCC[C@H]2[C@]2(O)O[C@](NC(=O)[C@@H]3C=C4c5cccc6[nH]c(Br)c(c56)CC4N(C)C3)(C(C)C)C(=O)N12 (stereo partly drawn) | i | i | . | . | 4.91e-08
Clc1ccc(C2CC(c3ccco3)n3ncnc3N2)cc1Cl (stereo not drawn) | i | i | 15.8% | -2.9% | 3.95e-08
CCC/C=C(\CCC)C(NS(=O)(=O)c1ccc(C(F)(F)F)cc1)c1ccccc1 (stereo not drawn) | . | . | 16.5% | -3.9% | .
COc1ccc(OC)c(C2N(c3ccccn3)C(=O)C3CCCN32)c1 (stereo not drawn) | i | i | -1.0% | 1.7% | 1.2e-09
O=C(Cc1cccs1)Nc1cccc(C(=O)Nc2ccco2)c1 | i | i | -2.8% | -2.4% | 1e-09
O=C(CSc1oc(-c2ccc(F)cc2)nc1S(=O)(=O)c1ccc(F)cc1)NCC1CCCO1 (stereo not drawn) | i | i | -0.8%[11.4 µM] | -0.6% | 1.72e-08
CC(=O)c1ccsc1B(O)O | . | . | 3.5% | 0.0% | .
FC(F)(F)c1cc(-c2cccs2)nc(N2CCOCC2)n1 | i | i | ? | -1.1% | 6.9e-09
CS(=O)(=O)Nc1cccc2cccnc12 | . | . | 6.2% | 2.2% | .
Cc1ccc(S(=O)(=O)O)cc1C | . | . | 1.6% | 2.6% | .
Cn1c(=O)[nH]c(=O)c2c1nc(NCc1ccccc1)n2CC(O)c1ccccc1 (stereo not drawn) | i | ? | -5.9% | -0.5% | 1e-09
O=C(CCNS(=O)(=O)c1cccc2nsnc12)Nc1ccc2c(c1)OCCO2 | i | i | -4.4% | 1.0% | 1e-09
CSc1nc(C)cc(OCCNS(=O)(=O)c2cc(C)ccc2C)n1 | i | i | . | . | 1.2e-08
CC1CCc2cc(F)cc3c(O)c(C(=O)NCc4ccco4)c(=O)n1c23 (stereo not drawn) | i | i | . | . | 3.2e-09
CCOc1ccc(OCC)c(NC(=O)CSc2nnc(-c3cccnc3)o2)c1 | i | i | 1.5% | 1.4% | 3.9e-09
O=NC1=C(c2c(O)[nH]c3ccccc23)CCCC1 | . | . | 5.9% | 0.1% | .
Oc1ccc(Cc2cc(Cl)cc(Cl)c2O)cc1Cl | i | i | -2.8%[11.4 µM] | 0.7%[11.5 µM] | 1e-09
CCc1nc(N)c(C#N)c(-c2ccccc2OC)c1C | i | i | 3.4% | 0.5% | 8.3e-09
COc1ccc(C2NC(=O)CS2)cc1OC (stereo not drawn) | i | i | 1.4% | -0.7% | 1e-09
Cn1c(SCc2ccccc2)nnc1-c1ccncc1 | i | i | -2.5% | 2.1% | 1e-09
COc1ccc(-c2nc(S(=O)(=O)c3ccc(C)cc3)c(N3CCCC3)o2)cc1 | i | i | ? | -1.1% | 4.4e-09
O=C(Nc1ccc(S(=O)(=O)Nc2ccc(Cl)cc2)cc1)C1CCCO1 (stereo not drawn) | i | i | 1.8% | -0.6% | 2.68e-08
Cc1ccc(N2CC(C(=O)Oc3cccc(N4C(=O)CCC4=O)c3)CC2=O)cc1 (stereo not drawn) | i | i | -7.3% | -0.7% | 1e-09
O=C(Cc1cccs1)Nc1nnc(CCc2ccccc2)s1 | i | i | -0.1% | 0.0% | 1e-09
N#Cc1c(/N=C/c2ccco2)sc2c1CCC2 | i | i | -1.8% | -2.0% | 2.7e-09
COc1ccccc1N1CCN(S(=O)(=O)c2ccc(Cl)s2)CC1 | i | i | ? | 0.7% | 1e-09
CCOC(=O)c1sc(NC(NC(=O)c2ccco2)(C(=O)OC)C(F)(F)F)nc1C (stereo not drawn) | i | i | ? | -0.6% | 2.7e-09
Cn1ccnc1SCc1cc(=O)[nH]c2ccccc12 | i | i | -12.0% | 0.1% | 9.6e-09
O=C(CSc1ncc(-c2ccc(F)cc2)[nH]1)Nc1cccc(O)c1 | i | i | -17.5% | -0.9% | 5.1e-09
CCc1cc2ccc(C)cc2nc1SCC(=O)N1CCN(C(=O)c2ccco2)CC1 | i | i | ? | 0.1% | 1.59e-08
CCCCN1Cc2cc(C(=O)c3cc(F)ccc3O)cnc2NC1=O | i | i | 5.7%[11.4 µM] | 3.5% | 1.34e-08
CCCCN1C2CCCC1CC(NC(=O)c1ccc(OC)c(OC)c1)C2 (stereo not drawn) | i | i | 7.0% | 0.9% | 4.43e-08
COc1ccc(-c2coc3cc(O)cc(O)c3c2=O)cc1 | i | i | -10.4% | -3.2% | 2.94e-08&1e-09
Cc1ccc(CN(CC(=O)NCCc2ccccc2)C(=O)CCCC(=O)Nc2cc(C)on2)cc1 | i | i | 12.3% | 0.9% | 1.89e-08
CC(C)(C)c1ccc(SCC(N)=O)cc1 | i | i | 15.6% | -1.4% | 2.18e-08
CCOC(=O)CSc1nnc(CNc2ccc(Cl)cc2)n1-c1ccccc1 | i | i | 18.6% | -1.1% | 2.7e-09
CCNC(=O)NC(=O)CSc1ccc(NC(C)=O)cc1 | i | i | -14.9% | -1.2% | 1e-09

Following part.
SMILES | Resorufin autofl | A488 fluor | TSHR ag | AID923 | A647 autofl
c1cncc(-c2ccc3ncnc(NCCN4CCOCC4)c3c2)c1 | i | i | 2.0% | 1.2% | 2.5e-09
COc1cccc(NC(=O)Cn2c(=O)n(CCCC(=O)NCc3ccco3)c(=O)c3ccccc32)c1 | i | i | 0.2% | 1.7% | 1.27e-08
O=C(c1cc(C(F)(F)F)cc(C(F)(F)F)c1)N1CCC[C@@]2(CCN(c3ccncc3)C2)C1 | i | i | ? | 0.8% | 1e-09
O=C1CC(c2cccs2)Sc2nc3ccccc3n21 (stereo not drawn) | i | i | 8.5% | -1.5% | 1.59e-08
CC(=O)N1CCC2(CC1)C(C#N)=C(N)Oc1n[nH]c(CSc3ccc(C)cc3)c12 | i | i | 12.1% | 0.0% | 2.1e-08
CCC(=O)N1CCc2cc(S(=O)(=O)CCC(=O)Nc3ccc(C)c(F)c3)ccc21 | i | i | 6.3% | -0.2% | 6.4e-09
CCCCCSc1nc2c(cnn2-c2ccccc2)c(=O)[nH]1 | i | i | 3.2% | -2.4% | 1.46e-08
O=c1cc(CSc2nnnn2-c2ccccc2)[nH]c2[nH]n(-c3ccccc3)c(=O)c12 | i | i | -21.0% | -1.9% | 1e-09
COC(=O)c1sc(=S)n(-c2ccccc2)c1N | i | i | -5.0% | 1.1% | 1e-09
Cc1ncc([N+](=O)[O-])n1C[C@H](O)CCl | i | i | -7.4%[25.6 µM] | -0.6%[25.7 µM] | 5.1e-09
COc1cccc(CC(=O)NCC2COc3ccccc3O2)c1OC (stereo not drawn) | i | i | ? | -0.1% | 9.7e-09
O=C(Nc1nc2c(s1)CCCC2)c1ccc(Br)o1 | . | . | 12.2%[11.4 µM] | -1.3% | .
O=C(c1ccccc1)N1CCCC(c2nc3c(nnn3Cc3ccccc3)c(=O)[nH]2)C1 (stereo not drawn) | i | i | 5.0% | -0.5% | 1e-09
CCOC(=O)C1(C)NC(c2ccc(N(C)C)cc2)C2C(=O)N(CC)C(=O)C21 (stereo not drawn) | i | i | -6.8% | 0.7% | 1.35e-08
CCc1cc2c(nc1CC)CCN(CC/C(C)=N/O[C@@H](C)c1cc(-c3c(C)cc(C)cc3C)no1)C2 | . | . | 9.3%[11.4 µM] | 0.2%[11.5 µM] | .
Brc1ccc(-c2nc(-c3ccncc3)no2)o1 | i | i | -3.0% | 0.3% | 1e-09
CCC(=O)N(Cc1ccco1)c1nc(-c2ccccc2)cs1 | i | i | ? | -1.2% | 4.8e-09
COc1ccccc1OCC(=O)OCC(=O)NCCN1C(=O)CSC1=O | i | i | -1.8% | -0.6% | 3.71e-08
COCCn1c(SCC(=O)Nc2cccc(C)c2)nnc1C(C)C | i | i | -0.4% | -0.1% | 1e-09
CSCCC(NS(=O)(=O)c1ccc2c(c1)oc(=O)n2C)C(=O)NC1CCCCC1 (stereo not drawn) | . | . | 7.1% | -1.6% | .
Cn1c(=O)cc(OCCCC(=O)Nc2ccccn2)c2ccccc21 | i | i | 3.0%[11.4 µM] | 0.0% | 1.41e-08
CN(C)c1ccc(-c2ccc3ncnc(NC4CC4)c3c2)cc1 | i | i | 1.4% | 11.5% | 1e-09
CC(C)c1nc(NCCN2CCOCC2)c(C#N)c2c1COC(C)(C)C2 | i | i | . | . | 9.2e-08
CC(Sc1cccc2cccc(C(=O)O)c12)C(=O)O (stereo not drawn) | i | i | -9.3% | 3.7% | 1e-09
O=C(c1cnc2ccccn2c1=O)N1CCc2ccccc21 | . | . | -4.0% | -0.1% | .
CCN(c1cccc(C)c1)S(=O)(=O)c1ccc2c(c1)CCN2C(C)=O | i | i | 29.5% | -1.6% | 1.25e-08
CCn1c(Sc2ccc(N)cc2Cl)nc2ccccc21 | i | i | ? | -2.4% | 6.9e-09
CCCCNC(=O)C(NS(=O)(=O)c1cccc2nsnc12)c1ccccc1 (stereo not drawn) | i | i | 22.2% | -0.9% | 6.1e-09
Cc1cccc(-c2noc(Cc3ccccc3)n2)c1 | . | . | 11.1% | 0.9% | .
O=C(CSc1ccc2nnc(-c3ccccn3)n2n1)Nc1ccc2c(c1)OCO2 | . | . | -9.0% | -1.2% | .
CCNC(=O)CP(=O)(c1ccccc1)c1ccccc1 | . | . | 10.9%[11.4 µM] | -3.1% | .

A draw from above in order of number of heavy atoms, low to high.
SMILES | Resorufin autofl | A488 fluor | TSHR ag | AID923 | A647 autofl
Cc1cccc(-c2noc(Cc3ccccc3)n2)c1 | . | . | 11.1% | 0.9% | .
CCn1c(Sc2ccc(N)cc2Cl)nc2ccccc21 | i | i | ? | -2.4% | 6.9e-09
CCN(c1cccc(C)c1)S(=O)(=O)c1ccc2c(c1)CCN2C(C)=O | i | i | 29.5% | -1.6% | 1.25e-08
